# Screening results: PubChem BioAssay, Broad Institute
# Ran FRET: inhibitors of Ran–importin-beta complex formation, primary screen, biochemical, CFP-Ran/YFP-importin-beta FRET, RCC1, cell-free (AID 434961); CFP-Ran/YFP-importin-beta FRET, cell-free; stronger effect = higher value; inhibition, %; 7,700 tested, 0.2% active;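 active means more than half of the replicate wells above 15% inhibition; inconclusive means exactly half above it; inactive means fewer than half above it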;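 further: 0% = DMSO wells and 100% inhibition = RanGDP control wells on each plate; stock of unstated strength diluted about 400-fold; mean of two wells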
# * hit, by the source's call; ? = inconclusive. Some of the compounds tested, so the mix of outcomes need not match the whole.
COc1ccc(CN(C)C[C@H]2Oc3ccc(NC(=O)Nc4ccc(OC)cc4)cc3CC(=O)N([C@@H](C)CO)C[C@H]2C)cc1
  Ran FRET = 2.8
C[C@H](CO)N1C[C@H](C)[C@H](CN(C)C(=O)Nc2ccccc2)OCCCC[C@H](C)Oc2ccc(NC(=O)Cc3ccccc3)cc2C1=O
  Ran FRET = -2.9
C[C@H]1CN([C@@H](C)CO)C(=O)c2cccc(NC(=O)c3ccncc3)c2O[C@H]1CN(C)Cc1ccc(Oc2ccccc2)cc1
  Ran FRET = 0.0
C[C@@H]1CN([C@@H](C)CO)C(=O)c2cc(NC(=O)NC3CCCCC3)ccc2O[C@@H]1CN(C)Cc1ccc2c(c1)OCO2
  Ran FRET = -0.7
Cc1noc(C)c1NC(=O)Nc1ccc2c(c1)C(=O)N([C@H](C)CO)C[C@H](C)[C@@H](CN(C)C)OCCCC[C@@H](C)O2
  Ran FRET = 0.6
C[C@@H]1CCCCO[C@H](CN(C)C(=O)C2CCCCC2)[C@@H](C)CN([C@H](C)CO)C(=O)c2cc(N(C)C)ccc2O1
  Ran FRET = -4.8
COc1ccc(C#Cc2cnc3c(c2)C(=O)N([C@H](C)CO)C[C@H](C)[C@H](CN(C)S(=O)(=O)c2cccs2)O3)cc1OC
  Ran FRET = 1.1
C[C@@H]1CN([C@H](C)CO)C(=O)c2cccc(NS(=O)(=O)c3cn(C)cn3)c2O[C@H]1CN(C)C(=O)Nc1cccc2ccccc12
  Ran FRET = 0.4
COc1ccc(S(=O)(=O)Nc2ccc3c(c2)C(=O)N([C@@H](C)CO)C[C@@H](C)[C@H](CN(C)Cc2ccc(C(F)(F)F)cc2)O3)cc1
  Ran FRET = 0.0
C[C@H]1CCCCO[C@H](CN(C)C(=O)Cc2ccccc2)[C@@H](C)CN([C@@H](C)CO)C(=O)c2cc(NS(C)(=O)=O)ccc2O1
  Ran FRET = -9.9

C[C@H](CO)N1C[C@H](C)[C@H](CN(C)CC2CCCCC2)Oc2ccc(NS(=O)(=O)c3ccc(Cl)cc3)cc2CC1=O
  Ran FRET = -0.8
C[C@@H]1CCCCO[C@H](CN(C)C(=O)C2CCCCC2)[C@H](C)CN([C@@H](C)CO)C(=O)c2cc(NC(=O)c3ccncc3)ccc2O1
  Ran FRET = 2.0
C[C@H]1CN([C@@H](C)CO)C(=O)c2cc(NC(=O)Cn3cnnn3)ccc2O[C@H]1CN(C)CC1CC1
  Ran FRET = -2.5
Cc1noc(C)c1NC(=O)N(C)C[C@@H]1Oc2c(NC(=O)c3cnccn3)cccc2C(=O)N([C@@H](C)CO)C[C@@H]1C
  Ran FRET = -1.4
C[C@H]1CN([C@@H](C)CO)C(=O)c2cc(NC(=O)Cc3cn(C)c4ccccc34)ccc2O[C@@H]1CN(C)C(=O)Nc1ccccc1
  Ran FRET = -3.3
C[C@H]1CN([C@@H](C)CO)C(=O)c2cc(N(C)C)ccc2O[C@@H]1CN(C)C
  Ran FRET = -3.3
C[C@@H]1CN([C@H](C)CO)C(=O)Cc2cc(NS(=O)(=O)c3ccccc3)ccc2O[C@H]1CN(C)S(=O)(=O)c1cccs1
  Ran FRET = 1.8
C[C@H](CO)N1C[C@H](C)[C@H](CN(C)C(=O)Nc2cccc3ccccc23)Oc2c(NS(=O)(=O)c3cn(C)cn3)cccc2C1=O
  Ran FRET = 0.9
C[C@H]1CN([C@@H](C)CO)C(=O)c2cc(NC(=O)Nc3ccc4c(c3)OCO4)ccc2O[C@H]1CN(C)CC1CCCCC1
  Ran FRET = 2.3
C[C@@H]1CN([C@@H](C)CO)C(=O)c2cccc(NS(C)(=O)=O)c2O[C@@H]1CN(C)C
  Ran FRET = -5.1

C[C@@H]1CN([C@@H](C)CO)C(=O)c2cc(N(C)C)ccc2O[C@@H](C)CCCCO[C@@H]1CN(C)C(=O)Nc1cccc2ccccc12
  Ran FRET = 3.6
C[C@@H]1CN([C@H](C)CO)C(=O)c2cc(NS(C)(=O)=O)ccc2O[C@@H](C)CCCCO[C@H]1CN(C)C(=O)Nc1ccc2c(c1)OCO2
  Ran FRET = -4.6
C[C@@H]1CN([C@@H](C)CO)C(=O)c2cccc(NC(=O)Nc3ccc(C(F)(F)F)cc3)c2O[C@H]1CN(C)C(=O)NC1CCCCC1
  Ran FRET = -2.4
Cc1noc(C)c1NC(=O)N(C)C[C@@H]1Oc2ccc(NC(=O)CCCN(C)C)cc2C(=O)N([C@H](C)CO)C[C@H]1C
  Ran FRET = 2.6
C[C@@H]1CN([C@@H](C)CO)C(=O)Cc2cc(NC(=O)Nc3ccc4c(c3)OCO4)ccc2O[C@@H]1CN(C)C(=O)Nc1cccc2ccccc12
  Ran FRET = -0.5
C[C@@H]1CCCCO[C@@H](CN(C)S(=O)(=O)c2ccccc2)[C@@H](C)CN([C@H](C)CO)C(=O)c2cc(NS(C)(=O)=O)ccc2O1
  Ran FRET = -0.7
Cc1ccc(S(=O)(=O)Nc2ccc3c(c2)CC(=O)N([C@H](C)CO)C[C@@H](C)[C@H](CN(C)C(=O)Nc2c(C)noc2C)O3)cc1
  Ran FRET = -2.1
C[C@H](CO)N1C[C@H](C)[C@H](CN(C)C(=O)Nc2ccccc2)Oc2ccc(NC(=O)Cc3cn(C)c4ccccc34)cc2C1=O
  Ran FRET = -3.3
CC(C)NC(=O)Nc1ccc2c(c1)CC(=O)N([C@H](C)CO)C[C@@H](C)[C@@H](CN(C)Cc1ccc(-c3ccccc3)cc1)O2
  Ran FRET = -2.0
COc1ccc(S(=O)(=O)Nc2cccc3c2O[C@H](CN(C)S(=O)(=O)c2cn(C)cn2)[C@H](C)CN([C@@H](C)CO)C3=O)cc1
  Ran FRET = 1.9

C[C@@H]1CN([C@H](C)CO)C(=O)Cc2cc(N(C)C)ccc2O[C@@H]1CN(C)C(=O)Nc1ccccc1
  Ran FRET = -1.9
C[C@H](CO)N1C[C@H](C)[C@H](CN(C)S(=O)(=O)c2cn(C)cn2)Oc2ccc(NC(=O)C3CC3)cc2C1=O
  Ran FRET = -1.8
C[C@H](CO)N1C[C@H](C)[C@@H](CN(C)S(=O)(=O)c2cn(C)cn2)Oc2ccc(NC(=O)CCN3CCOCC3)cc2CC1=O
  Ran FRET = -1.6
C[C@@H]1CN([C@H](C)CO)C(=O)CCCn2cc(nn2)CO[C@@H]1CN(C)C(=O)Cc1ccccc1
  Ran FRET = 6.9
C[C@@H]1CN([C@H](C)CO)C(=O)c2cccc(NS(=O)(=O)c3cccs3)c2O[C@H]1CN(C)Cc1ccc(C(F)(F)F)cc1
  Ran FRET = 2.3
C[C@@H]1CN([C@@H](C)CO)C(=O)c2cccc(NC(=O)NC3CCCCC3)c2O[C@H]1CN(C)S(=O)(=O)c1ccc(Cl)cc1
  Ran FRET = -0.8
C[C@@H]1CN([C@@H](C)CO)C(=O)Cc2cc(NS(=O)(=O)c3cccs3)ccc2O[C@H]1CN(C)CC1CC1
  Ran FRET = 2.9
Cc1noc(C)c1NC(=O)N(C)C[C@H]1OCCCC[C@@H](C)Oc2ccc(NC(=O)CCC(F)(F)F)cc2C(=O)N([C@H](C)CO)C[C@@H]1C
  Ran FRET = -3.1
C[C@@H]1CN([C@@H](C)CO)C(=O)c2cccc(NS(=O)(=O)c3cn(C)cn3)c2O[C@H]1CN(C)C(=O)Nc1cccc2ccccc12
  Ran FRET = 5.9
C[C@@H]1CN([C@H](C)CO)C(=O)Cc2cc(NC(=O)Nc3ccccc3)ccc2O[C@@H]1CN(C)C(=O)Nc1ccc(F)cc1
  Ran FRET = -3.1

COc1ccc(NC(=O)Nc2cccc3c2O[C@H](CN(C)C(=O)Nc2ccccc2)[C@@H](C)CN([C@@H](C)CO)C3=O)cc1
  Ran FRET = 1.8
C[C@@H]1CN([C@H](C)CO)C(=O)c2cc(NC(=O)NC3CCCCC3)ccc2O[C@@H]1CN(C)Cc1ccncc1
  Ran FRET = -1.9
C[C@H]1CN([C@@H](C)CO)C(=O)c2cc(N(C)C)ccc2O[C@H]1CN(C)C(=O)Nc1ccc(F)cc1
  Ran FRET = 0.3
C[C@H]1CN([C@@H](C)CO)C(=O)c2cc(NC(=O)NC3CCCCC3)ccc2O[C@H]1CN(C)C(=O)Nc1ccccc1
  Ran FRET = 3.5
Cc1noc(C)c1NC(=O)Nc1ccc2c(c1)C(=O)N([C@H](C)CO)C[C@H](C)[C@H](CN(C)C(=O)NC(C)C)OCCCC[C@@H](C)O2
  Ran FRET = -3.0
C[C@@H]1CN([C@H](C)CO)C(=O)c2cc(NS(=O)(=O)c3cccs3)ccc2O[C@@H]1CN(C)C(=O)Nc1ccc2c(c1)OCO2
  Ran FRET = 0.5
C[C@H]1CCCCO[C@H](CN(C)S(C)(=O)=O)[C@@H](C)CN([C@@H](C)CO)C(=O)c2cc(NS(=O)(=O)c3ccccc3)ccc2O1
  Ran FRET = 1.0
C[C@@H]1CCCCO[C@H](CN(C)C)[C@H](C)CN([C@@H](C)CO)C(=O)c2cc(NC(=O)C3CCCCC3)ccc2O1
  Ran FRET = -2.7
Cc1noc(C)c1NC(=O)Nc1ccc2c(c1)C(=O)N([C@H](C)CO)C[C@H](C)[C@@H](CN(C)C)O2
  Ran FRET = -2.3
C[C@@H]1CCCCO[C@@H](CN(C)Cc2ccncc2)[C@H](C)CN([C@H](C)CO)C(=O)c2cc(NC(=O)c3ccncc3)ccc2O1
  Ran FRET = -4.7

# Next section.
SMILES,Ran FRET
CC(C)NC(=O)Nc1ccc2c(c1)C(=O)N([C@@H](C)CO)C[C@@H](C)[C@H](CN(C)Cc1ccc(C(=O)O)cc1)OCCCC[C@@H](C)O2,1.4
C[C@H]1CN([C@@H](C)CO)C(=O)c2cc(NS(=O)(=O)c3cn(C)cn3)ccc2O[C@H]1CN(C)C(=O)NC1CCCCC1,?
C[C@@H]1CN([C@@H](C)CO)C(=O)c2cccc(NS(=O)(=O)c3cccs3)c2O[C@@H]1CN(C)C(=O)NC1CCCCC1,0.4
C[C@@H]1CN([C@H](C)CO)C(=O)c2cc(NS(=O)(=O)c3cccs3)ccc2O[C@@H]1CN(C)C(=O)NC1CCCCC1,3.2
COc1ccc(CN(C)C[C@@H]2Oc3ccc(NC(=O)Nc4ccc(C(F)(F)F)cc4)cc3CC(=O)N([C@H](C)CO)C[C@H]2C)cc1,-0.2
C[C@H]1CN([C@@H](C)CO)C(=O)c2cccc(NC(=O)c3ccncc3)c2O[C@H]1CN(C)C(=O)Nc1ccc(C(F)(F)F)cc1,-6.0
C[C@H](CO)N1C[C@H](C)[C@@H](CN(C)C)Oc2c(NS(=O)(=O)c3ccc(Cl)cc3)cccc2C1=O,-2.6
C[C@@H]1CN([C@@H](C)CO)C(=O)c2cc(NC(=O)Nc3ccc4c(c3)OCO4)ccc2O[C@H]1CN(C)S(=O)(=O)c1ccc(F)cc1,2.6
C[C@H](CO)N1C[C@H](C)[C@H](CN(C)C)Oc2ncc(C#CC(C)(C)O)cc2C1=O,8.2
CC(C)NC(=O)Nc1ccc2c(c1)C(=O)N([C@H](C)CO)C[C@H](C)[C@H](CN(C)C(=O)c1ccncc1)OCCCC[C@@H](C)O2,-5.2

# The list continues:
SMILES,Ran FRET
COc1ccc(S(=O)(=O)Nc2cccc3c2O[C@H](CN(C)Cc2ccncc2)[C@H](C)CN([C@@H](C)CO)C3=O)cc1,-2.8
Cc1noc(C)c1S(=O)(=O)Nc1ccc2c(c1)CC(=O)N([C@@H](C)CO)C[C@H](C)[C@@H](CN(C)Cc1ccc(-c3ccccc3)cc1)O2,-0.6
Cc1noc(C)c1NC(=O)Nc1cccc2c1O[C@H](CN(C)Cc1ccc(C(F)(F)F)cc1)[C@@H](C)CN([C@@H](C)CO)C2=O,-5.5
C[C@@H]1CN([C@@H](C)CO)C(=O)CCCn2nncc2CO[C@H]1CN(C)C(=O)Nc1ccc(N2CCN(C)CC2)cc1,1.0
C[C@@H]1CN([C@H](C)CO)C(=O)c2cc(N(C)C)ccc2O[C@@H](C)CCCCO[C@H]1CN(C)C(=O)Nc1cccc2ccccc12,2.1
C[C@H]1CN([C@@H](C)CO)C(=O)c2cc(NC(=O)Cc3ccccc3)ccc2O[C@@H]1CN(C)C(=O)Nc1ccccc1,-4.9
Cc1noc(C)c1NC(=O)N(C)C[C@H]1OCCCC[C@@H](C)Oc2ccc(N(C)C)cc2C(=O)N([C@@H](C)CO)C[C@H]1C,2.9
C[C@H](CO)N1C[C@H](C)[C@@H](CN(C)S(=O)(=O)c2ccccc2)Oc2ccc(NS(=O)(=O)c3cccs3)cc2CC1=O,0.4
C[C@@H]1CN([C@@H](C)CO)C(=O)CCCn2cc(nn2)CO[C@H]1CN(C)C(=O)Nc1ccnc(N2CCOCC2)c1,0.4

# Molecules from the list above that have a CF3 group (seven):
SMILES,Ran FRET
COc1ccc(S(=O)(=O)Nc2ccc3c(c2)C(=O)N([C@@H](C)CO)C[C@@H](C)[C@H](CN(C)Cc2ccc(C(F)(F)F)cc2)O3)cc1,0.0
C[C@@H]1CN([C@@H](C)CO)C(=O)c2cccc(NC(=O)Nc3ccc(C(F)(F)F)cc3)c2O[C@H]1CN(C)C(=O)NC1CCCCC1,-2.4
C[C@@H]1CN([C@H](C)CO)C(=O)c2cccc(NS(=O)(=O)c3cccs3)c2O[C@H]1CN(C)Cc1ccc(C(F)(F)F)cc1,2.3
Cc1noc(C)c1NC(=O)N(C)C[C@H]1OCCCC[C@@H](C)Oc2ccc(NC(=O)CCC(F)(F)F)cc2C(=O)N([C@H](C)CO)C[C@@H]1C,-3.1
COc1ccc(CN(C)C[C@@H]2Oc3ccc(NC(=O)Nc4ccc(C(F)(F)F)cc4)cc3CC(=O)N([C@H](C)CO)C[C@H]2C)cc1,-0.2
C[C@H]1CN([C@@H](C)CO)C(=O)c2cccc(NC(=O)c3ccncc3)c2O[C@H]1CN(C)C(=O)Nc1ccc(C(F)(F)F)cc1,-6.0
Cc1noc(C)c1NC(=O)Nc1cccc2c1O[C@H](CN(C)Cc1ccc(C(F)(F)F)cc1)[C@@H](C)CN([C@@H](C)CO)C2=O,-5.5

# Part of the list above, with the structure last.
Ran FRET	Molecule
-4.9	C[C@H]1CN([C@@H](C)CO)C(=O)c2cc(NC(=O)Cc3ccccc3)ccc2O[C@@H]1CN(C)C(=O)Nc1ccccc1
1.0	C[C@@H]1CN([C@@H](C)CO)C(=O)CCCn2nncc2CO[C@H]1CN(C)C(=O)Nc1ccc(N2CCN(C)CC2)cc1
